VDR inhibitor = blocks the human vitamin D receptor. P11473. VDR-SRC2-3 peptide fluorescence polarization, 2 h. Potency, µM, for the others: max response, negative = inhibition, usual class: inhibitors. 400,000 tested, 0.93% active. AID 504847; active means well fitted inhibition curve with a large enough effect; inconclusive means small, poorly fitted or top-dose-only effect, or another doubt; inactive means no such curve, though single readings can be large or run the other way; further: series mostly up to about 120 µM
Target sequence (P11473 whole entry, looked up): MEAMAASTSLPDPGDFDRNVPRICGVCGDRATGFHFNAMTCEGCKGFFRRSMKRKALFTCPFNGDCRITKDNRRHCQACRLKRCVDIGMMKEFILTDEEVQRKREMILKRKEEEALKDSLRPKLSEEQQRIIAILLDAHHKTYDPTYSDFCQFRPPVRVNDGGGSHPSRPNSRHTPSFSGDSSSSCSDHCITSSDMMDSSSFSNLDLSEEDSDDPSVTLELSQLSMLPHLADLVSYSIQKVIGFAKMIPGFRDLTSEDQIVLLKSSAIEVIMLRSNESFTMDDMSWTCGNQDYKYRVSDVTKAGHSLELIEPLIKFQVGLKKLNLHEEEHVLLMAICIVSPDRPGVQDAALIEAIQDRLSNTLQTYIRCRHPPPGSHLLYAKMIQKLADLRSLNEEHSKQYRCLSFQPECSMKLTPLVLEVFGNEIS
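Measured by FP: displacement of SRC2-3 coactivator peptide from VDR by library compounds, following a two-hour ambient incubation.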
Starred values were filed as active, the others as inactive; ? = inconclusive; & = joins results of further samples. On the % scale 0 is the no-effect control and ±100 the full control effect; potency means the concentration at half of the fitted maximal effect.

SMILES	VDR inhibitor
O=S(=O)(NCCc1csc2nc(-c3ccccc3)nn12)c1ccc(Oc2ccccc2)cc1	-3%
COC(=O)c1nn(-c2ccc(-c3ccccc3)cc2)cc1O	3%
O=C(COC(=O)c1ccc(Cl)nc1)Nc1ccc(N2CCCCC2)cc1	-8%
COC(=O)[C@@]12CCCCN1[C@H](c1ccc(-c3ccccc3)cc1)[C@H]1C(=O)N(C)C(=O)[C@H]12	2%
CCCc1nc2sc3c(c2c(=O)n1NC(=O)c1ccco1)CC(C)(C)OC3	2%
Cc1ccc(C(=O)N2CCN(c3ncc(C(F)(F)F)cc3Cl)CC2)s1	-15%
COc1ccc(C(=O)Nc2ccccc2-c2nc(-c3ccc(OC)cc3)no2)cc1	6%
CCC(=O)Nc1cc2[nH]c(=O)cc(C)c2cc1C	-12%
Cc1[nH]nc(SCC(=O)N2CCCC2)c1[N+](=O)[O-]	-22%
CN1CCN(CCC(=O)Nc2ccccc2)CC1	-28%
N#Cc1ccsc1NC(=O)COC(=O)c1ccc(NC(N)=O)cc1	-6%
COc1ccc(C(=O)OC(C)CN2CCOCC2)cc1OC (stereo not given)	-3%
Cc1occc1-c1nnc(SCCCC(=O)c2ccc(F)cc2)n1C	-8%
CCOc1c(C)cnc2c1c(=O)n(Cc1ccccc1Cl)c(=O)n2C	3%
OC(CN1CCCCCC1)CN(c1ccccc1)c1ccccc1 (stereo not given)	0%
Cc1cc(C)nc(SCc2nnc(SCC(=O)Nc3ncc(C)s3)n2Cc2ccco2)n1	-8%

An excerpt of these results, as labelled records.
Cc1[nH]nc(SCC(=O)N2CCCC2)c1[N+](=O)[O-]
  VDR inhibitor: -22%
CN1CCN(CCC(=O)Nc2ccccc2)CC1
  VDR inhibitor: -28%
N#Cc1ccsc1NC(=O)COC(=O)c1ccc(NC(N)=O)cc1
  VDR inhibitor: -6%

Continued.
SMILES	VDR inhibitor
O=[N+]([O-])c1ccc(Cl)c(-c2ccc(/C=N/c3c(-c4ccco4)nc4ccccn34)o2)c1	?
COc1cccc2oc3ccc(C#CC4(N)CCCCC4)cc3c(=O)c12	-28%
O=C(NCC1CCCO1)c1ccccc1 (stereo not given)	8%
COc1ccc(C(=O)c2cn(CC(=O)Nc3cc(C)ccc3C)c3nc(C)ccc3c2=O)cc1	-3%
CC(Oc1ccc(-c2ccccc2)c(F)c1)c1ccn(S(=O)(=O)c2cccc3ccccc23)n1 (stereo not given)	5%
COCCN(C(=O)c1c(C)noc1C)c1c(N)n(CC(C)C)c(=O)[nH]c1=O	4%
COc1ccc(CN2CCCC(CO)(Cc3ccc(F)cc3)C2)c(OC)c1OC (stereo not given)	2%
CC(=O)c1ccc(Nc2nc(C)cc(C)n2)cc1	1%
Cc1cccc(C)c1NC(=O)CNCC(=O)Nc1c(C)cccc1C	6%
CC(=O)OCC(=O)[C@@]1(O)CCC2C3CCC4=CC(=O)CC[C@]4(C)C3C(O)C[C@]21C (stereo not given in full)	-3%
Nc1nnc(CC(=O)N/N=C/c2cccc(OCCOc3ccccc3)c2)s1	-3%
Cc1cc(C)nc(N(C#N)CC(=O)c2ccccc2)n1	19%
CC(=O)N1CCN(C(=S)NCCc2ccccc2)CC1	-26%
COC(=O)Nc1nc(Sc2ncc(C(F)(F)F)cc2Cl)n[nH]1	-10%
COc1ccc(/C=N/Nc2cc(N3CCOCC3)ncn2)c(OC)c1	1%
O=C(c1cc2ccccc2oc1=O)N(Cc1ccccc1)Cc1ccc2c(c1)OCO2	6%

The closing two entries of the section above lead into the next:
SMILES	VDR inhibitor
COc1ccc(/C=N/Nc2cc(N3CCOCC3)ncn2)c(OC)c1	1%
O=C(c1cc2ccccc2oc1=O)N(Cc1ccccc1)Cc1ccc2c(c1)OCO2	6%
CO/N=C(\CCC(=O)O)c1cccs1	-11%
COC(=O)CSc1nc2nc(-c3cccs3)cc(C(F)(F)F)c2c(=O)[nH]1	20%
O=C(CSc1c(Cl)cccc1Cl)NC1CCCc2ccccc21 (stereo not given)	-13%
O=C(C1CC(=O)N(c2ccccc2)C1)N1CCN(c2ccc(F)cc2)CC1 (stereo not given)	-9%
Cc1cc(C(=O)NCCC(C)C)c2ccccc2n1	3%
Cn1cnc2ncnc(Oc3ccc(Br)cc3)c21	9%
COc1cccc(C(=O)c2c(N)c(-c3nc(-c4ccccc4)cs3)c3ccccn23)c1	10%
Cc1nn(CCC(=O)NCc2ccc(OC(C)C)cc2)c(=O)c2nn(-c3ccccc3)c(C)c12	-7%

The closing 3 entries of the part before lead into the next:
SMILES	VDR inhibitor
Cn1cnc2ncnc(Oc3ccc(Br)cc3)c21	9%
COc1cccc(C(=O)c2c(N)c(-c3nc(-c4ccccc4)cs3)c3ccccn23)c1	10%
Cc1nn(CCC(=O)NCc2ccc(OC(C)C)cc2)c(=O)c2nn(-c3ccccc3)c(C)c12	-7%
O=C(NC(=S)Nc1nc2c(ccc3ccccc32)s1)c1cccs1	-8%
CCc1cccc(NC(=O)c2cn3c4c(ccc(Cl)c4c2=O)OC(C)C3)c1 (stereo not given)	6%
CCCSc1nnc(Nc2ccccc2C)s1	7%
COc1cc(NC(=S)NCc2cccnc2)cc(OC)c1OC	-7%
COc1cc(C2c3c(oc4cc(C)c(C)cc4c3=O)C(=O)N2CCCN2CCOCC2)ccc1O (stereo not given)	?
CCC(=O)N1c2ccc(S(=O)(=O)CCC(=O)Nc3ccc(OC)cc3OC)cc2CC1C (stereo not given)	0%&-1%
Cc1ccc(C(C)C)c(OCC(O)CN(C)Cc2ccccc2)c1 (stereo not given)	-4%
COc1ccc(-c2csc(N3CCN(c4cc5c(cc4Cl)nc(-c4ccncc4)n5CCOCCO)CC3)n2)cc1	-24%
CO/N=C(\C(=O)O)c1csc(NN=C(C)C)n1	-12%
CC(=O)Nc1cc(C(=O)N2CCN(C)CC2)ccc1S(=O)(=O)c1ccc(C)cc1	17%
Cc1ccc(Cn2ccnc2SCC(=O)Nc2ccc3c(c2)OCO3)cc1	9%
O=C(Nc1ccc2c(c1)OCO2)C1CCCCN1S(=O)(=O)c1ccc(F)cc1 (stereo not given)	2%
O=C(COC(=O)CCS(=O)(=O)c1ccc(Cl)cc1)NCCc1ccc(Cl)cc1Cl	-5%
Cn1cc(C(=O)O)c(-c2ccc3c(c2)OCCCO3)n1	5%
COc1cnn(-c2ccc(F)cc2)c(=O)c1Br	9%
CN(C)S(=O)(=O)c1cccc(NC(=O)COC(=O)c2cc3ccccc3oc2=O)c1	20%
CCCCCCCN1CCC(=O)N(CCO)CC1	-17%
CS(=O)(=O)c1ccccc1C(=O)Nc1nc2ccccc2[nH]1	16%
CCOc1ccc(/C(O)=C2\C(=O)C(=O)N(c3cc(C)on3)C2c2ccccc2OC)cc1 (stereo not given)	-1%
COc1ccccc1C(=O)COC(=O)c1ccccc1O	18%
CC(C)n1nnnc1C(c1ccc(F)cc1)N1CCN(C2CCCC2)CC1 (stereo not given)	-20%
CCOC(=O)c1c(NC(=O)CS(=O)(=O)c2ccc(Cl)cc2)sc2c1CCCC2	15%
O=C(CNS(=O)(=O)c1cccs1)N1CCN(c2ccccc2Cl)CC1	-2%
N/C(Cc1ccc([N+](=O)[O-])cc1)=N\OC(=O)c1ccc(Br)cc1	?
Cc1ccc(C(=O)Nc2ccccc2Sc2ccccc2)cc1	-15%
Cc1nc2c(Br)c(C)nn2c2c1CCC2	-16%
CC(C)c1ccc(NC2CCCN(C(=O)CCc3cn[nH]c3)C2)cc1 (stereo not given)	-7%
O=C(CN1CCN(c2ccccc2F)CC1)c1c[nH]c2ccccc12	13%
CCOC(=O)C1(C)C=C(Nc2ccc(C(N)=O)cc2)C(=O)N1c1ccccc1 (stereo not given)	-2%
COc1cccc(NC(=O)CN(C)CC(=O)Nc2ccc(Cl)cc2[N+](=O)[O-])c1	-10%
Nc1nnc(SCc2nnc(-c3ccccc3)o2)s1	7%
OC(COc1ccc2ccccc2c1)CN1CCOCC1 (stereo not given)	-6%&11%
Cc1cc(Oc2cc(NN3CCCCC3)c([N+](=O)[O-])cc2[N+](=O)[O-])c(C(=O)c2ccccc2)cc1Cl	-16%
COc1ccc(CNC(=O)CNS(=O)(=O)c2cccc(C#N)c2)cc1OC	0%
C[C@H]1CN([C@@H](C)CO)C(=O)c2cc(NC(=O)NC3CCCCC3)ccc2O[C@H]1CN(C)C(=O)Nc1ccc(C(F)(F)F)cc1	23%
CC(=O)c1ccc(S(=O)(=O)N(C)CCCC(=O)NCc2ccc3c(c2)OCO3)cc1	-13%
CCc1ccc(NC(=O)C2(c3ccccc3)CC2(Cl)Cl)cc1 (stereo not given)	3%
Cn1nccc1C(=O)N1CCN(S(=O)(=O)c2ccc(Br)s2)CC1	16%
CCCOc1ccc(-c2cccc(NS(=O)(=O)c3ccc(CC)cc3)c2)nn1	2%
COc1cccc(C(=O)N2CC(=O)Nc3ccc(C)cc3C2c2ccc(F)cc2)c1OC (stereo not given)	2%
COc1ccc(NC(=S)N(CCCN2CCOCC2)C(C)c2cc3ccccc3o2)cc1 (stereo not given)	-11%
O=C(CSc1nnc(COc2ccccc2)o1)N1CCN(c2ccccc2)CC1	9%&0%
COCCN(CCOC)c1cc(C)c(C#N)c2nc3ccccc3n12	5%
CC(C)(C)OC(=O)[C@H](CCCCN)NC(=O)c1[nH]cnc1C(=O)N[C@@H](Cc1ccccc1)C(=O)OCc1ccccc1	-2%
COc1cc(-c2cc(=O)c3c(O)c(OC)c(OC)cc3o2)cc(OC)c1O	11%
CCOc1ccc(CSC(CC(=O)O)C(=O)O)cc1 (stereo not given)	-1%
COc1ccc(C2C(C(=O)c3ccco3)=C(O)C(=O)N2CCc2ccccc2)cc1OC (stereo not given)	4%
O=C(NN1C(=O)c2ccc3c4c(ccc(c24)C1=O)CC3)c1ccc(Br)cc1	-3%
O=C(CNC(=O)c1ccccc1)NCC(=O)OCC(=O)c1cccc2ccccc12	-15%
CCc1ccc(NC(=O)Cn2c(=O)n(CCCC(=O)NCc3ccco3)c(=O)c3ccccc32)cc1	16%
CC1(C)Cc2c(cnn2-c2ccc(F)cc2)C(NC(=O)CCN2CCCCC2=O)C1 (stereo not given)	-13%
COc1cc(C(=O)Nc2ccc(C(C)=O)cc2)c(Br)c(OC)c1OC	?
CCCn1c(-c2cccc(F)c2)nc2c1c(=O)[nH]c(=O)n2Cc1ccccc1	4%
COC(=O)C1=C(C)N(c2ccccc2)C(=S)NC1c1ccccc1C(F)(F)F (stereo not given)	-11%
COc1ccc(OC)c(NC(=O)/C=C/c2ccccc2[N+](=O)[O-])c1	-5%
CCOC(=O)c1ccc(Nc2nc(-c3cccnc3)nc3ccccc23)cc1	10%

Going on with the list.
SMILES	VDR inhibitor
COCc1ccccc1Cn1cnc2c1c(=O)n(C)c(=O)n2C	17%
COc1cccc(C2c3[nH]c4ccccc4c3C[C@H]3C(=O)N(c4ccccc4C(=O)N4CCC[C@H]4C(=O)O)C(=O)N23)c1 (stereo not given in full)	-21%
Cc1ccc(Nc2ncnc(-n3cccc3)n2)cc1Cl	-14%
CCC(=O)Nc1ccc2nc3c(=O)[nH]c(=S)[nH]c3nc2c1	8%
CC(NC(=O)C(=O)NCCc1c[nH]c2ccccc12)c1ccccc1 (stereo not given)	-4%
CCOc1cccc(=O)c2c(C)n(CC(=O)c3ccccc3)c(C)c12	0%
CCCCOc1ccc(C(=O)N2CCN(CCc3ccncc3)CC2)cc1	-8%
Cn1nccc1/C=N\NC(=O)c1ccc(Cl)cc1	6%
O=C(NCc1ccco1)c1cccc(S(=O)(=O)N2CCCCC2)c1	13%
O=c1c2cc(Cl)ccc2[nH]c(=S)n1Cc1ccco1	2%
Cc1sc2ncn(CC(=O)NCC(=O)N(C)C3CCCCC3)c(=O)c2c1C	-8%
O=C(NCCCN1CCCCC1)c1ccc2c(c1)NC(=O)C(N1CCOCC1)S2 (stereo not given)	7%
COc1ccccc1N(CC(=O)NC1CCCC1)C(=O)c1oc(C(C)(C)C)cc1C	-4%
O=c1ccn(Cc2ccccc2)c2ccccc12	0%
Cc1cc(OCC(=O)NCc2ccccn2)cc(C)c1Br	6%
COc1ccc(-c2cc3nc(-c4ccc(C)cc4)cc(C(F)(F)F)n3n2)cc1	4%
COc1ccc(CCNC(=O)c2n[nH]c3ccccc23)cc1	-5%
Cc1ccc(S(=O)(=O)N2CCOC2CNC(=O)C(=O)NCCCN2CCOCC2)cc1 (stereo not given)	-8%
COc1ccc(OC)c(CNC(=O)CCc2nc(-c3cccs3)no2)c1	-12%
O=C(c1cccc(F)c1)N1CCC2(CCCN(c3cccc(-c4ccccc4)c3)C2)CC1	-14%
COc1ccc(C(=O)N2CCN(CC(=O)N3CCOCC3)CC2)cc1	4%&10%
O=C(NC1CC1)C1CCN(C2CCN(C(=O)c3c(F)cccc3Cl)CC2)CC1	-17%
CC1CCN(c2ccc3nnc(CCC(=O)N4CCCCC4)n3n2)CC1	3%
Cc1ccc(C(=O)N2CCCC2)cc1S(=O)(=O)N1CCCCC1	-7%
CCn1c(SCC(=O)Nc2ccc(C)cc2)nc2nc3c(cc2c1=O)CCCC3	-2%
O=C(NCc1ccc(Cl)cc1)c1ccc(S(=O)(=O)N2CCCCC2)cc1	-19%
CCOc1ccc(S(=O)(=O)NCCCN2CCOCC2)cc1	-2%
COc1ccccc1-c1noc(CCC(=O)N2CCN(c3cc(C)ccc3C)CC2)n1	-9%
CCc1ccccc1NC(=O)Cn1nnc(-c2nc(-c3ccncc3)no2)c1N	11%

Some of the compounds tested. The share of hits here may be higher or lower than overall.
